Compound activity as filed in PubChem.
BmaI1 = BmaI1 acyl-homoserine lactone synthase inhibition – biochemical, fluorescence intensity, with counterscreen (AID 720554); BmaI1 enzyme assay, fluorescence intensity; stronger effect = higher value; test concentration not given here; a few actives read low; strong numbers were not always called active; inhibition, %; 0.4% of 12,000 active;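 active = both replicates within 2 robust z-scores of the inhibited control and a quiet counterscreen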;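 also: 0% = uninhibited enzyme and 100% = inhibited control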
BmaI1 counterscreen = also measured in BmaI1; calls as there; inhibition, %; measured here: counterscreen; design of the counterscreen not given here;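 first of two replicates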
The depositor's hits bear a star; & = joins results of further samples.

SMILES	BmaI1	BmaI1 counterscreen
C/C=C/C(=O)N(CC)c1ccccc1C	-0.5	6.0
CCOC(=O)[C@H](CCc1ccccc1)N[C@@H](C)C(=O)N1Cc2ccccc2C[C@H]1C(=O)O	-3.0	0.5
COc1ccc(C2CNC(=O)C2)cc1OC1CCCC1 (configuration not stated)	8.0	2.0
CCN(CC)CCOC(=O)c1ccc(N)cc1	-6.5	22.0
CCCc1nc(C(C)(C)O)c(C(=O)O)n1Cc1ccc(-c2ccccc2-c2nn[nH]n2)cc1	4.0	-1.0
CC[C@@H]1C(=O)OC[C@@H]1Cc1cncn1C	7.0	15.0
N#Cc1ccc(C(c2ccc(C#N)cc2)n2cncn2)cc1	0.0	6.5
CC1Cc2ccccc2N1NC(=O)c1ccc(Cl)c(S(N)(=O)=O)c1 (configuration not stated)	50.5	17.5
CC12CCC(=O)C=C1CCC1C2CCC2(C)C1CCC2(O)C(=O)CO (configuration not stated)	6.0	12.0
CC(=O)Nc1ccc(CC(=O)O)cc1	4.0	13.0
CN(C)CCCC1(c2ccc(F)cc2)OCc2cc(C#N)ccc21 (configuration not stated)	5.5&-13.0	6.5&-5.0
O=C(O)c1ccc2ccccc2c1O	29.5	0.0
CNCCCN1c2ccccc2CCc2ccccc21	4.0	24.0
Oc1ccc(C2CNCCc3c2cc(O)c(O)c3Cl)cc1 (configuration not stated)	71.0	38.0
CC12CC3CC(C)(C1)CC(N)(C3)C2	-1.5	2.5
CCc1ccc(CCOc2ccc(CC3SC(=O)NC3=O)cc2)nc1 (configuration not stated)	1.5	4.0
NC1CCN(c2nc3c(cc2F)c(=O)c(C(=O)O)cn3-c2ccc(F)cc2F)C1 (configuration not stated)	-3.0	2.0
CC(=O)CCCCn1c(=O)c2c(ncn2C)n(C)c1=O	10.0	12.5

5 records drawn at random from those above, as already listed:
SMILES	BmaI1	BmaI1 counterscreen
O=C(O)c1ccc2ccccc2c1O	29.5	0.0
CN(C)CCCC1(c2ccc(F)cc2)OCc2cc(C#N)ccc21 (configuration not stated)	5.5&-13.0	6.5&-5.0
NC1CCN(c2nc3c(cc2F)c(=O)c(C(=O)O)cn3-c2ccc(F)cc2F)C1 (configuration not stated)	-3.0	2.0
CCc1ccc(CCOc2ccc(CC3SC(=O)NC3=O)cc2)nc1 (configuration not stated)	1.5	4.0
CNCCCN1c2ccccc2CCc2ccccc21	4.0	24.0

Profiles, looked up by structure. Values in the order: BmaI1, BmaI1 counterscreen
`CC12CC3CC(C)(C1)CC(N)(C3)C2` is entered as -1.5, 2.5
`CCc1ccc(CCOc2ccc(CC3SC(=O)NC3=O)cc2)nc1` (configuration not stated) is entered as 1.5, 4.0

Copied from the list.
Reading of CCN(CC)CCOC(=O)c1ccc(N)cc1 in BmaI1: -6.5
Reading of O=C(O)c1ccc2ccccc2c1O in BmaI1 counterscreen: 0.0
Reading of CC(=O)CCCCn1c(=O)c2c(ncn2C)n(C)c1=O in BmaI1: 10.0
Reading of CNCCCN1c2ccccc2CCc2ccccc21 in BmaI1: 4.0

A portion of the library; rates above refer to the full screens.
